Autofluor counter: compound fluorescence in toxin protease inhibitor counterscreen; compound autofluorescence counterscreen, microsphere flow cytometry; active compounds read high; AID 624483; fluorescence intensity (concentration not given with the values); hit rate 3.1% among 360,000;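 active = at least 3 SD above the mean of all compounds, about 16000 in these data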;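 also: 100 nL of 1 mM stock went into each well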
An asterisk follows results filed as active.

Compound | Autofluor counter
OC(c1ccc(F)cc1)c1nc(-c2cnc3ccccc3c2)cs1 (centres undefined) | 3701
COc1ccccc1CNC(=O)COC(=O)CCN1C(=O)C2CC=CCC2C1=O (centres undefined) | 2980
COc1cc2ccc(C(=O)O)cc2cc1OC | 3839
COc1cccc(C=NN(C)c2c([N+](=O)[O-])cc(C(F)(F)F)cc2[N+](=O)[O-])c1O | 4224
COC(=O)C[C@H]1C[C@H]2c3cc(NS(=O)(=O)c4cccc(OC)c4)ccc3O[C@H]2[C@@H](CO)O1 | 3556
CCOc1ccc(NC(=O)CN(C)C(=O)Cc2ccc3c(c2)OCCO3)cc1OCC | 2984
COc1ccc(OC)c(CN2C(=O)c3ccccc3C2c2nnnn2-c2ccc3c(c2)OCCO3)c1 (centres undefined) | 4440
COc1ccc(S(=O)(=O)N2CCOCC2)cc1NC(=O)CCCSc1ccccc1 | 3967
Cc1ccc(S(=O)(=O)NCC2CCC(C(=O)NCCCN3CCC(C)CC3)CC2)cc1 (centres undefined) | 3842
O=C1NCCN(CC2CCN(CCc3ccccc3)CC2)C1=O | 3818
CC1Sc2ccc(C#N)cc2N(Cc2cccc(C(F)(F)F)c2)C1=O (centres undefined) | 3751
Cc1ccc(-c2ccc(CN3C(C)C(=O)N(Cc4cn(CCC5OCCO5)nn4)CCS3(=O)=O)cc2)cc1 (centres undefined) | 2869
C[C@H]1CN([C@@H](C)CO)C(=O)CCCn2nncc2CO[C@H]1CN(C)S(=O)(=O)c1ccc(Cl)cc1 | 2951
CN(C)c1ccc(-c2ccnc3c2CC(C)(C(=O)Nc2ccccc2)O3)cc1 (centres undefined) | 2702
COc1ccccc1N1CCN(c2ncnc3n[nH]c(Br)c23)CC1 | 5854
C[C@@H]1CN([C@H](C)CO)C(=O)c2cc(C#C[C@@H](C)O)cnc2O[C@H]1CN(C)C(=O)c1ccc(F)cc1 | 3912
CC(=O)Nc1cc(-c2ccccc2)cn2c(-c3cccc(C(C)=O)c3)cnc12 | 3149
Cc1nnc(SCC(=O)Nc2cccc(S(=O)(=O)N3CCCC3)c2)n1C1CC1 | 3632
c1coc(-c2nc(N=C3N=c4ccccc4=N3)[nH]c2-c2ccco2)c1 | 3885
O=C1NC[C@H](CCCCN2C[C@H](Cc3ccc(O)cc3)N(CC3CCCCC3)C(=O)C2=O)N(CCC2CCCCC2)C1=O | 5764
CC1=C(C(=O)N(C)C)CC(CC(=O)NCC2CCCCC2)C(=O)N1Cc1ccc(F)cc1 (centres undefined) | 6188
COc1ccc(NC(=O)CCNC(=O)N2CC(=O)Nc3ccccc32)cc1OC | 4490
C[C@H](NC(=O)CC[C@H]1O[C@@H](n2ccc(=O)[nH]c2=O)[C@H](O)[C@@H]1O)C(=O)O | 3985
O=C(C[n+]1ccc(C(=O)NCc2ccccc2)cc1)c1ccc(F)cc1 | 4347
CCOc1ccc(Cl)cc1-c1cc(C(=O)NCC2CCCCC2)[nH]n1 | 4065
CN(C)CCN1CCN(c2cc(-c3cccc(Cl)c3)nc3ccnn23)CC1 | 3568
Cc1ccc(Cc2c(-c3cccc(Br)c3)nc3c(Cl)cc(C(F)(F)F)cn23)cc1 | 5793
CCOc1cc(OCC)cc(C(=O)N2CCC[C@@H]2C(=O)N2CCC[C@@H]2C(=O)NCc2ccccc2Cl)c1 | 5516
CC1=C(C(=O)OCc2ccccc2)C(c2ccc(C)cc2)NC(=O)N1 (centres undefined) | 3896
CC(C)n1nnnc1C1c2ccccc2C(=O)N1CCc1ccccc1F (centres undefined) | 4225
CC1CCCC(C)N1C(=O)COC(=O)CNS(=O)(=O)c1ccc2ccccc2c1 (centres undefined) | 2966
CC(C)=C(NC(=O)c1ccccc1Cl)C(=O)NCCc1nc2ccccc2[nH]1 | 4041
CN(C)C(=S)Oc1ccccc1C1SCCS1 | 4404
CCOC(=O)C[C@@H](C#N)NC(=O)[C@@H]1CCCN1C(=O)[C@@H](NC(=O)c1ccc(N)c(Cl)c1)C(C)(C)C | 3351
Cc1ccc(NC(=O)CSc2nnc3ccccn23)c(Cl)c1 | 3866
CCc1nc2ccc(C(=O)Nc3cccc(OCC(=O)N(C)C)c3)cn2c1N(CCN(C)C)CC1CC1 | 3797
CCOC(=O)[C@]12CCC=C1N(Cc1ccccc1)C(=O)[C@H](CC(=O)NCC13CC4CC(CC(C4)C1)C3)C2 | 5959
C[C@@H]1CN([C@H](C)CO)C(=O)c2cc(Br)cnc2O[C@H]1CN(C)C | 3725
CCC1OC(C(C)C)Cc2[nH][nH]c(=O)c21 (centres undefined) | 6313
C[C@H](CO)N1C[C@H](C)[C@@H](CN(C)C(=O)Nc2ccccc2)Oc2ncc(C#CC3CCCCC3)cc2C1=O | 2830
COc1cccc(Cn2c(Cn3c(-c4cnccn4)nc4ccccc43)nc3ccccc32)c1 | 6119
C[C@H](O)[C@@H]1CN2CCc3c([nH]c4ccccc34)[C@@H]2C[C@@H]1N(C)C(=S)NCCc1ccccc1 | 12944
COc1ccc(C2NC(=O)NC(C)=C2C(=O)OC2CCCCC2)cc1 (centres undefined) | 3884
COc1ccc(CN2CCC[C@]3(N[C@H](c4ccc(OC)cc4)[C@@H]4C(=O)N(C)C(=O)[C@@H]43)C2=O)cc1 | 2823
CCN(CC)C(=O)C1=C(C)N(Cc2ccc(F)cc2)C(=O)C(CC(=O)NCCCCc2ccccc2)C1 (centres undefined) | 2849
COc1ccc(-n2nnnc2C(c2cccs2)N2CCC(n3c(=O)[nH]c4ccccc43)CC2)cc1 (centres undefined) | 6076
O=C1CN(C(=O)CN2CCN(S(=O)(=O)c3ccccc3F)CC2)c2ccccc2N1 | 3948
CC1(C(=O)NS(=O)(=O)Cc2ccccc2C(F)(F)F)CCN1C(=O)Cc1ccccc1 (centres undefined) | 3644
CCC(=O)N1CCCC(C(=O)NCc2ccc(C(C)C)cc2)CC1 (centres undefined) | 4013
COCOc1cccc(CN2CCC2(C)C(=O)Nc2ccc3c(c2)OCO3)c1 (centres undefined) | 3726
COc1ccc(OCCN2CCC(C(=O)NC(c3ccc(C)cc3)c3ccccn3)CC2)cc1 (centres undefined) | 4211
COc1cc(NC(=O)C2(C)CCN2C(C)C)cc(OC)c1OC (centres undefined) | 3747
N#Cc1ccc(-c2nc3ccc(Br)cn3c2Cc2cccc(Cl)c2)cc1 | 8273
COc1cccc(C(O)c2nc(-c3ccccc3C)cs2)c1 (centres undefined) | 3631
Cn1nc(C(C)(C)C)cc1NC(=O)C1(C)CCN1C(=O)CC(c1ccccc1)c1ccccc1 (centres undefined) | 3069
CC(C)c1cccc(-c2csc(C(O)c3ccc(F)c(F)c3)n2)c1 (centres undefined) | 3582

The listing continues:
Compound | Autofluor counter
CC1(C(=O)NS(=O)(=O)C2CC2)CCN(C(=O)c2ccc3c(c2)OCO3)C1 (centres undefined) | 3976
Cc1ccc(C(=O)NCC(=O)N2CCN(c3ccccc3O)CC2)s1 | 2838
CCCNC(=O)C1(C)CCN(C(=O)c2cc(F)cc(F)c2)C1 (centres undefined) | 3903
CCOC(=O)[C@]12CCC=C1N(Cc1cccc3ccccc13)C(=O)[C@H](CC(=O)N1CCCC1)C2 | 6613
COc1cccc(C(O)c2ncc(-c3ccc4ccccc4c3)[nH]2)c1 (centres undefined) | 4119
CCCN(C)C1CN(Cc2cn(Cc3ccc(C)cc3)nn2)S(=O)(=O)C1 (centres undefined) | 4398
C=C(C)CN1C(=O)C(C)SC1=NN=C1SCC(=O)N1C (centres undefined) | 2910
Cc1ccc(Cc2c(-c3cccc(Cl)c3)nc3ccc(C)cn23)cc1 | 4669

A few values from the entries so far:
For Autofluor counter, CCCN(C)C1CN(Cc2cn(Cc3ccc(C)cc3)nn2)S(=O)(=O)C1 (centres undefined) is listed with 4398
For Autofluor counter, COc1cccc(C(O)c2ncc(-c3ccc4ccccc4c3)[nH]2)c1 (centres undefined) is listed with 4119
For Autofluor counter, Cc1ccc(C(=O)NCC(=O)N2CCN(c3ccccc3O)CC2)s1 is listed with 2838
For Autofluor counter, C=C(C)CN1C(=O)C(C)SC1=NN=C1SCC(=O)N1C (centres undefined) is listed with 2910

Next section.
Compound | Autofluor counter
COCCNc1nc(NCCOc2ccccc2)c2sc(-c3ccccc3)cc2n1 | 2942
CCOc1ccc(CCN2C(=S)N([C@@H](Cc3ccccc3)CN3CCCC3CN3C(=S)NC[C@@H]3Cc3ccccc3)C[C@@H]2Cc2ccc(O)cc2)cc1 (some centres undefined) | 6088
CCOC(=O)[C@]12CCCC=C1N(Cc1ccc3c(c1)OCO3)C(=O)[C@H](CC(=O)NCc1cccc(C(F)(F)F)c1)C2 | 5685
Cc1cc(NC(=O)CS(=O)(=O)c2cn(Cc3cccc(Br)c3)c3ccccc23)no1 | 4473
COC(=O)CCCn1cc(CN2CC(N3CCN(CCN(C)C)CC3)CS2(=O)=O)nn1 (centres undefined) | 4550
CC(=O)OC[C@@H]1CN(Cc2ccccc2)C[C@H](n2cnc3c(N4CCCC4)ncnc32)O1 | 3781
CC(C)N1CCN(c2ccncc2S(=O)(=O)N2CCCCC2)CC1 | 3504
C[C@H](CO)N1C[C@H](C)[C@@H](CN(C)S(=O)(=O)c2cccs2)OCc2cn(nn2)CCCC1=O | 3460

Arranged by formula weight (rising): 3 of the compounds above.
Compound | Autofluor counter
COCCNc1nc(NCCOc2ccccc2)c2sc(-c3ccccc3)cc2n1 | 2942
Cc1cc(NC(=O)CS(=O)(=O)c2cn(Cc3cccc(Br)c3)c3ccccc23)no1 | 4473
CCOc1ccc(CCN2C(=S)N([C@@H](Cc3ccccc3)CN3CCCC3CN3C(=S)NC[C@@H]3Cc3ccccc3)C[C@@H]2Cc2ccc(O)cc2)cc1 (some centres undefined) | 6088

(more compounds)
Compound | Autofluor counter
COc1ccccc1CCn1cnc(-c2ccc(OC)c(OC)c2)c1C(C)C | 4522
COc1cc(Cl)ccc1OC1(C)CCN(Cc2c(F)cccc2F)C1 (centres undefined) | 3804
OC(Cc1ccccc1)c1ncc(-c2ccc(Cl)cc2)[nH]1 (centres undefined) | 3510
CCC(=O)N1CCCC(C)(C(=O)Nc2ccc(OC)c(F)c2)C1 (centres undefined) | 3840
Cn1c(=O)c2cc(NC(=S)NC3CC3)ccc2n1C/C=C/c1ccccc1 | 3742
CC(C)CCN1C(=O)c2ccccc2C1c1nnnn1-c1ccc2c(c1)OCCO2 (centres undefined) | 6050
COc1ccc(CC(N)c2csc(NC(=O)Nc3ccccc3Cc3ccccc3)n2)cc1 (centres undefined) | 3057
Oc1ccc(C[C@H]2CN([C@@H](Cc3ccccc3)CN3CCCC3CN3C(=S)NC[C@@H]3Cc3ccccc3)C(=S)N2CC2CCCCC2)cc1 (some centres undefined) | 5344

Compounds listed so far containing bromine, in the order listed:
Compound | Autofluor counter
COc1ccccc1N1CCN(c2ncnc3n[nH]c(Br)c23)CC1 | 5854
Cc1ccc(Cc2c(-c3cccc(Br)c3)nc3c(Cl)cc(C(F)(F)F)cn23)cc1 | 5793
C[C@@H]1CN([C@H](C)CO)C(=O)c2cc(Br)cnc2O[C@H]1CN(C)C | 3725
N#Cc1ccc(-c2nc3ccc(Br)cn3c2Cc2cccc(Cl)c2)cc1 | 8273
Cc1cc(NC(=O)CS(=O)(=O)c2cn(Cc3cccc(Br)c3)c3ccccc23)no1 | 4473

The list goes on:
Compound | Autofluor counter
COc1ccc(OC)c(C(=O)NC2CCCc3c2cnn3-c2cc(C)cc(C)c2)c1 (centres undefined) | 3551
Nc1[nH]c(C(=O)c2ccccc2)c(-c2ccncc2)c1C(=O)NCCc1c[nH]c2ccccc12 | 5238
Cc1cc(C)cc(C(O)c2ncc(-c3ccccc3F)[nH]2)c1 (centres undefined) | 2809
COc1cccc(NC(=O)c2ccc3nc(C)c(N(C)Cc4ccc(NC(C)=O)cc4)n3c2)c1 | 3080
CSc1ccc(-c2ccc3c(c2)c(Sc2ccccc2)c(-c2ccccc2)n3C)cc1 | 3926
COc1ccc(C(=O)Nc2ccc3c(c2)OCCO3)c(OC)c1 | 3405
CCOC1=C2CN(S(=O)(=O)c3ccc(C)cc3)CC[C@@H]2N(S(=O)(=O)c2ccc(C)cc2)[C@H](c2ccccc2)C1 | 6174
CC1=C(C(=O)N2CCOCC2)CC(CC(=O)NCc2cccc3ccccc23)C(=O)N1Cc1ccc(C(C)(C)C)cc1 (centres undefined) | 5803
C[C@@H]1CN([C@@H](C)CO)C(=O)c2cc(Br)cnc2O[C@H]1CN(C)S(=O)(=O)c1cccs1 | 2878
COc1ccc(-c2ccc3c(c2)CN(CC(C)C)Cc2cnnn2-3)cc1 | 4273
O=C(C[C@H]1C(=O)N(c2ccccc2)C[C@@H]1Cc1ccccc1)Nc1ccccc1 | 3536
CC1(C(=O)NCc2ccc3c(c2)OCO3)CCN1C(=O)Cc1ccc(Cl)cc1Cl (centres undefined) | 4124
C[C@@H]1CCCCO[C@@H](CN(C)CC2CC2)[C@@H](C)CN([C@H](C)CO)C(=O)c2cc(N(C)C)ccc2O1 | 3803
O=C(/C=C/[C@H]1O[C@@H](n2ccc(=O)[nH]c2=O)[C@H](O)[C@@H]1O)NCCN1CCCC1 | 5603
CCOC(=O)C1=C[C@@H](C(C)(C)C)N(S(=O)(=O)c2ccc([N+](=O)[O-])cc2)[C@H]1c1ccccc1 | 5885
COc1cccc(C(O)c2nc(-c3ccc(OC)nc3)cs2)c1 (centres undefined) | 3573
COCCCNc1nccn2ccnc12 | 2817
CCCCN1C(=O)C(CC(=O)NCc2cccs2)CC(C(=O)N2CCOCC2)=C1C (centres undefined) | 4093
CCCCNC(=O)C1(C)CCCCN1C(=O)c1cc(C#N)cs1 (centres undefined) | 2773
COCOCCn1cc(CN2CCS(=O)(=O)N(Cc3ccc(-c4ccc(OC)c(OC)c4)cc3)C(CC(C)C)C2=O)nn1 (centres undefined) | 3826
CC1(C(=O)Nc2ccc3c(c2)OCCO3)CCN1C(=O)Cc1ccc(-c2ccccc2)cc1 (centres undefined) | 2860
O=C(NCC(c1ccco1)N1CCCC1)c1cccc(S(=O)(=O)N2CCCCC2)c1 (centres undefined) | 7791
O=C(NCc1ccco1)Nc1nnc([C@H]2C[C@H](O)[C@@H](CO)O2)s1 | 3534
C[C@H](NC(=O)c1[nH]cnc1C(=O)Nc1ccccc1F)c1ccccc1 | 3818
CCOC(=O)C1=CCN(S(=O)(=O)c2ccc(C)cc2)C1c1ccc(C(C)C)cc1 (centres undefined) | 5558
C/C=C/c1cnc2c(c1)C(=O)N([C@@H](C)CO)C[C@H](C)[C@@H](CN(C)S(=O)(=O)c1ccc(C)cc1)O2 | 3622

Screening results deposited in PubChem by NMMLSC.

The list is partial; the hit share may differ from the screen's.
